VDR inh: Inhibitors of the vitamin D receptor (VDR): qHTS. VDR-SRC2-3 peptide fluorescence polarization, 2 h. 0.93% of 400,000 active. Vitamin D3 receptor (Homo sapiens), P11473. Potency, µM, for inactives: max response, negative = inhibition, actives largely listed as inhibitors. AID 504847, 2011; active = well fitted inhibition curve with a large enough effect; inconclusive = small, poorly fitted or top-dose-only effect, or another doubt; inactive = no such curve, though single readings can be large or run the other way; note: series mostly up to about 120 µM
Target sequence (P11473 whole entry, looked up): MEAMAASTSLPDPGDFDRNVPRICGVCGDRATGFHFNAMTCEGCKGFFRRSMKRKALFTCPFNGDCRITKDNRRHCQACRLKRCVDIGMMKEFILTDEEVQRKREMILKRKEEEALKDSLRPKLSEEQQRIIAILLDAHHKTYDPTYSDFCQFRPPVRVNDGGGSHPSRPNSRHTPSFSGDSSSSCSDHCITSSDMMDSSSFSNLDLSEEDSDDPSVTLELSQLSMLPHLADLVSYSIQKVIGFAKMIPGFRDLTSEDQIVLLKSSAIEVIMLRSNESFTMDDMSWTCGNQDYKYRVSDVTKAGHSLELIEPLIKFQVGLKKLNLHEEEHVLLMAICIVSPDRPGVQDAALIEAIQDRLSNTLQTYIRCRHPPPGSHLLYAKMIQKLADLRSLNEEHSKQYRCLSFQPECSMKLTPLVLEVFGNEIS
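Measured by FP: displacement of SRC2-3 coactivator peptide from VDR by library compounds, following a two-hour ambient incubation.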
Active calls of the source: *; u = inconclusive; & = joins results of further samples. % is set by controls: 0 for no effect and ±100 for the full control effect; potency is the fitted concentration of half-maximal effect. The list is partial; the hit share may differ from the screen's.

The first 19 compounds, ahead of the listing:
SMILES	VDR inh
CCOC(=O)c1sc(Nc2nc(OC)cc(OC)n2)nc1C	-1%
COc1ccc(N2CCN(C3CCCN(C(=O)CN4CCCC4=O)C3)CC2)cc1 (centres undefined)	-2%
Cc1ccc(S(=O)(=O)NC(=O)Nc2nnc(C)s2)cc1	0%
CC(C)c1onc(-c2c(Cl)cccc2Cl)c1COc1ccc(/C=C/c2cccc(C(=O)O)c2)c(Cl)c1	u
CCN(CC)CCNc1oc(-c2ccccc2)nc1S(=O)(=O)c1ccccc1	3%
CCCCC(=NCCc1c(C)[nH]c2ccc(OC)cc12)C1=C(O)CC(c2ccccc2)CC1=O (centres undefined)	2%
COC(=O)C1(Cc2ccc3c(c2)CCC3)Cc2ccc3c(c2C1=O)CCC3 (centres undefined)	0%
COc1ccc(S(=O)(=O)N2CCC(C(=O)Nc3nnc(CCN4CCCCC4)s3)CC2)cc1	2%
O=Cc1ccc(-c2cccc([N+](=O)[O-])c2)o1	-3%
CCN1CCCC1CNCC(O)COc1ccc(C(C)(C)C)cc1C (centres undefined)	-3%
O=C(NNC(=O)C1CCCO1)c1ccc([N+](=O)[O-])cc1 (centres undefined)	-8%
CCN(CCO)Cc1csc2ccc(Br)cc12	1%
COc1cccc(NC(=O)CN(C)CC(=O)Nc2ccc(C)cc2Cl)c1	3%
Cc1cccc(C)c1NC(=O)CNC(=O)Cn1nc(C)c(C)c(C#N)c1=O	-17%
CCC(c1nnnn1C1CCCCC1)N1CCN(C2CCCC2)CC1 (centres undefined)	4%
O=c1c2ccccc2nc(-c2ccc(Cl)cc2)n1C1CCS(=O)(=O)C1 (centres undefined)	6%
Clc1ccc(-c2c[n+](Cc3cccc(Cl)c3)c3n2CCC3)cc1	11%
O=C(O)C1CCc2nc(NCc3ccccc3)nc(NCc3ccccc3)c2C1 (centres undefined)	-10%
Cn1c(C(C#N)/C(=N\S(=O)(=O)c2cccs2)c2ccccc2)nc2ccccc21 (centres undefined)	5%

This part in full (from the top)
SMILES	VDR inh
CCOC(=O)c1sc(Nc2nc(OC)cc(OC)n2)nc1C	-1%
COc1ccc(N2CCN(C3CCCN(C(=O)CN4CCCC4=O)C3)CC2)cc1 (centres undefined)	-2%
Cc1ccc(S(=O)(=O)NC(=O)Nc2nnc(C)s2)cc1	0%
CC(C)c1onc(-c2c(Cl)cccc2Cl)c1COc1ccc(/C=C/c2cccc(C(=O)O)c2)c(Cl)c1	u
CCN(CC)CCNc1oc(-c2ccccc2)nc1S(=O)(=O)c1ccccc1	3%
CCCCC(=NCCc1c(C)[nH]c2ccc(OC)cc12)C1=C(O)CC(c2ccccc2)CC1=O (centres undefined)	2%
COC(=O)C1(Cc2ccc3c(c2)CCC3)Cc2ccc3c(c2C1=O)CCC3 (centres undefined)	0%
COc1ccc(S(=O)(=O)N2CCC(C(=O)Nc3nnc(CCN4CCCCC4)s3)CC2)cc1	2%
O=Cc1ccc(-c2cccc([N+](=O)[O-])c2)o1	-3%
CCN1CCCC1CNCC(O)COc1ccc(C(C)(C)C)cc1C (centres undefined)	-3%
O=C(NNC(=O)C1CCCO1)c1ccc([N+](=O)[O-])cc1 (centres undefined)	-8%
CCN(CCO)Cc1csc2ccc(Br)cc12	1%
COc1cccc(NC(=O)CN(C)CC(=O)Nc2ccc(C)cc2Cl)c1	3%
Cc1cccc(C)c1NC(=O)CNC(=O)Cn1nc(C)c(C)c(C#N)c1=O	-17%
CCC(c1nnnn1C1CCCCC1)N1CCN(C2CCCC2)CC1 (centres undefined)	4%
O=c1c2ccccc2nc(-c2ccc(Cl)cc2)n1C1CCS(=O)(=O)C1 (centres undefined)	6%
Clc1ccc(-c2c[n+](Cc3cccc(Cl)c3)c3n2CCC3)cc1	11%
O=C(O)C1CCc2nc(NCc3ccccc3)nc(NCc3ccccc3)c2C1 (centres undefined)	-10%
Cn1c(C(C#N)/C(=N\S(=O)(=O)c2cccs2)c2ccccc2)nc2ccccc21 (centres undefined)	5%
Cc1c(NC(=O)COC(=O)c2ccc(Cl)nc2)c(=O)n(-c2ccccc2)n1C	3%
Cc1cccc(C(=O)N2CCC(c3nc4ccccc4s3)CC2)c1	2%
COc1ccc(/C=C/C(=O)c2ccc(C(=O)/C=C/c3ccc(OC)c(OC)c3)cc2)cc1OC	-18%
CN(C(=O)CSc1nc2ccc(NC(=O)COc3ccc(Cl)cc3)cc2s1)c1ccccc1	2%
CCC(C)(C)NC(=O)C(c1ccccn1)N(C(=O)c1csnn1)c1ccc(C)c(C)c1 (centres undefined)	11%
Cc1ccccc1-c1nc2c(s1)CCc1onc(-c3ccc(Cl)cc3)c1-2	3%

Going on with the list:
SMILES	VDR inh
COCCNS(=O)(=O)c1cccc2cccnc12	-25%
CCC(C)NC(=O)c1cnn(-c2cccc(F)c2)c1-n1cccc1 (centres undefined)	5%
Cc1c(C(=O)N/N=C/C(C)C)[nH]c2ccc([N+](=O)[O-])cc12	3%
COCCCn1c(SCC(=O)NC2CCCC2)nnc1-c1ccccc1	-11%
CC(C)(O)C(=O)N/N=C\c1ccc(OC/C=C/c2ccccc2)cc1	15%
c1ccc(Nc2cccc(Nc3ccccc3)n2)cc1	-7%
COc1cc(C(=O)NCCc2nc3ccccc3n2C)cc(OC)c1OC	1%
Cc1oc(-c2cccc3ccccc23)nc1CN1CCC[C@H]1CO	-17%
Cn1c(=O)n(-c2ccccc2)c(=O)c2c3c(sc21)COC(C)(C)C3	-15%
CCc1nc(N2CCN(C(C)=O)CC2)c2c3c(sc2n1)CCCC3	-12%
COc1cc2c(cc1OC)CN(Cc1cc(=O)oc3c(C)c(C)ccc13)CC2	-15%
COc1ccc(C(=O)NCCCN2CCOCC2)cc1S(=O)(=O)N1CCCc2ccccc21	1%
CCc1nn2c(-c3ccccc3OC)ccnc2c1-c1ccccc1	15%
CC(C(=O)N1CCCc2ccccc21)N1CCN(c2ccccn2)CC1 (centres undefined)	16%
Cc1ccc(S(=O)(=O)N2CCC[C@H]2C(=O)NCc2ccccc2Cl)cc1	9%
O=C(CCc1c[nH]c2ccccc12)N1CCN(S(=O)(=O)c2ccc(F)cc2)CC1	11%
O=C(NCc1ccc2c(c1)OCO2)c1cc2c(s1)CSC2	-13%
Cc1nnc(NC(=O)CSc2nnc(CCc3nc4ccccc4[nH]3)n2C)s1	16%
Cc1ccc(N2CC(C(=O)N3CCN(c4ccccn4)CC3)CC2=O)cc1 (centres undefined)	9%
CCOc1cc(C2CC(=O)Nc3c2c(=O)nc(SCc2cccc(Cl)c2)n3C)ccc1O (centres undefined)	20%
CC1(C)C2CCC1(C)C(Nc1ccccc1)C2 (centres undefined)	-7%
C=CCC[C@H](Cc1ccc(F)cc1)C(=O)OC[C@@H](Cc1c[nH]c2ccccc12)NC(=O)[C@H](CC=C)CC(=O)NCCO	-14%
O=C(c1ccco1)c1coc2c1cc(O)c1ccccc12	-22%
CC1C(=O)N2CCCc3cc(NC(=O)C4CC4)cc1c32 (centres undefined)	-8%
CCOc1ccc(C(C)=O)cc1COC(=O)c1cc([N+](=O)[O-])ccc1N1CCOCC1	-2%

Other records:
SMILES	VDR inh
CCn1c(=NC(=O)CS(=O)(=O)c2ccc(C)cc2)sc2cccc(OC)c21	-4%
O=C(CSc1nc(O)c(C2CCCCC2)c(=O)[nH]1)NCC1CCCO1 (centres undefined)	0%
Cc1cccc(N(CC(=O)NCc2ccc(F)cc2)C(=O)c2csnn2)c1C	-24%
CCOc1ccc(C(=O)NCC2CCCO2)cc1 (centres undefined)	1%
COc1cccc(/C=N/NC(=O)CNC(=O)c2ccc(S(=O)(=O)N3CCCC3)cc2)c1OC	2%
CCCNC(=O)c1cnn2c(C(F)F)cc(-c3ccccc3)nc12	-18%
Cc1ccc([N+](=O)[O-])cc1S(=O)(=O)N(C(=O)c1ccncc1)c1ccc2oc3c(c2c1)CCCC3	-23%
Cc1ccc(NC(=O)Nc2nc3ccc(S(C)(=O)=O)cc3s2)cc1	6%
COC(=O)c1sccc1NC(=O)Nc1cccc([N+](=O)[O-])c1	4%
Cc1cccc(-n2ncc3c(NCCc4ccc(S(N)(=O)=O)cc4)ncnc32)c1	-2%
CCOc1ccc(CCNC(=O)c2nc(-c3cccc(F)c3)n3c2CCCCC3)cc1OCC	-4%
COc1cc(C(=O)NCc2nnc(SCC(=O)Nc3nc4ccc(C)cc4s3)o2)cc(OC)c1OC	-6%
O=C(CCC(=O)c1ccc(F)cc1)Nc1cccc(S(=O)(=O)Nc2cccc(Cl)c2)c1	-15%
CCN1CCc2nc3ccccc3c(C(=O)Nc3ccc(C#N)cc3)c2C1	3%
O=C(Oc1cccc(Cl)c1)N1CCOCC1	2%
Cc1csc(=O)n1CCC(=O)OCC(=O)Nc1ccc(Cl)cn1	9%
CCOC(=O)Cc1csc(NC(=S)NC(=O)c2cc(OC)c(OC)c(OC)c2)n1	-12%
CCCOc1ccc(Br)cc1CSC(=N)N	-7%
C/C=C/c1ccc(OCC(O)CN2CCCCCCC2)c(OC)c1 (centres undefined)	-14%
COc1ccc(N2CCN(C(=O)CCc3c(C)nc4cc(-c5ccc(OC)cc5OC)nn4c3C)CC2)cc1	0%
COc1cccc2sc(Nc3nc4ccc(NC(C)=O)cc4s3)nc12	7%
CC(=O)Oc1ccc(/C=C2\N=C(C3CCCCC3)OC2=O)cc1	79µM*
O=C(CN1CCN(C(=O)c2ccccc2F)CC1)Nc1ccc(Br)cc1	-6%
Cc1[nH]c(-c2ccc(F)cc2)cc1C(=O)N1CCN(c2ccccc2)CC1	13%
COc1ccc(S(=O)(=O)N(CCO)c2ccccc2CN(C)CC=Cc2ccc(Cl)cc2)cc1	-19%

Remaining list, next part
SMILES	VDR inh
CCOc1ccccc1N(CC(=O)Nc1c(C)n(C)n(-c2ccccc2)c1=O)S(=O)(=O)c1ccccc1	5%
COc1ccc(Br)cc1CNC(=O)c1ccc2c(c1)N(Cc1ccc(C)cc1)CCS2	-5%
Cc1ccc(C(=O)C(C)Oc2ccc3ccc(=O)oc3c2)cc1 (centres undefined)	-11%
Cc1ccccc1OCCn1cc(C(=O)c2ccco2)c2ccccc21	12%
CC(=O)Nc1ccc(C(=O)N2CCCc3ccccc32)cc1	-1%
Cc1ccc(S(=O)(=O)c2nnn3c2nc(N2CCCCC2)c2ccccc23)cc1	-4%
Cc1cccc(CNc2nc(-c3cccc(NS(C)(=O)=O)c3)nc3ccccc23)c1	4%
CCOC(=O)CNc1c(-c2ccc(F)cc2)nc2cnccn12	-4%
CN(C(=O)COC(=O)c1ccccc1SCC(=O)N1CCCC1)C1(C#N)CCCCC1	5%
Cc1ccc(CNC(=O)c2ccc(N3CCC4(CC3)CC(c3cccc(Br)c3)=NO4)c(NC(=O)c3c(Cl)cccc3Cl)c2)cc1	-27%
Cc1ccc(CNC(=O)CCCCCn2c(=O)[nH]c3ccccc3c2=O)cc1	19%
Cc1ccc(Nc2nnc(SCC(=O)NC3CC3)s2)cc1	2%
CCOC(=O)c1c(N)sc2c(O)c(Br)ccc12	-1%
O=C1c2cccc3c([N+](=O)[O-])ccc(c23)C(=O)N1c1nccs1	3%
O=C(COc1ccccc1)Nc1cc(Cl)ccc1Cl	1%
CC1(C)CC=C(O[Si](C)(c2ccccc2)c2ccccc2)CC1	3%
CCc1cccc(-n2nnc(-c3nc(-c4ccccc4Cl)no3)c2N)c1	-9%
CCOC(=O)c1cccc(NC(=O)N2CC(CC)Oc3ccccc32)c1 (centres undefined)	9%
O=C(CNc1cc(S(=O)(=O)N2CCCC2)ccc1OCC(F)(F)F)Nc1cccc(C(F)(F)F)c1	6%
O=C(NNS(=O)(=O)c1ccccc1)C1CCN(S(=O)(=O)c2ccc(Cl)cc2)CC1	4%
Cc1ccc(NC(=O)C2C3C=CC4(CN(Cc5cccnc5)C(=O)C24)O3)cc1 (centres undefined)	12%
COc1cccc(Nc2ncc3nc(-c4ccccc4)c(=O)n(Cc4cccs4)c3n2)c1	1%
COC(=O)c1ccc(NC(=S)NCC2CC2)cc1	-9%
c1ccc(N2CCN(c3nc4ccccc4n4nnnc34)CC2)cc1	-8%
CNc1nc(-c2ccccc2)nnc1C(F)(F)F	-13%

Going on with the list.
SMILES	VDR inh
COc1ccc(CCN2CC(C(=O)N(C)Cc3ccc(C)o3)CCC2=O)cc1 (centres undefined)	-14%
Cc1cc(Nc2nc3c(c(=O)n(C)c(=O)n3C)n2C)n(-c2ccc(Cl)cc2)n1	8%
COc1ccc(-c2ccc3c(N)c(C(=O)c4ccc(OC)c(OC)c4)sc3n2)cc1	23%&25%
O=C1c2ccccc2C(=O)C1c1ccnc2ccccc12	-3%
COc1cc(OC)cc(C(=O)NCc2ccc3c(c2)OCO3)c1	-7%
CCc1ccc(N2CC(C(=O)Nc3nccs3)CC2=O)cc1 (centres undefined)	-7%
O=C(OCc1nnc(-c2ccccc2)o1)c1cc([N+](=O)[O-])ccc1Cl	-4%
CC(OC(=O)CCCc1nc2ccccc2s1)C(=O)NC(N)=O (centres undefined)	-2%
CCOC(=O)c1ccc(CN(Cc2ccccc2C)S(=O)(=O)c2ccc(C(C)(C)C)cc2)cc1	-1%
Cn1c(SCC(=O)c2ccc3c(c2)OCO3)nnc1C1COc2ccccc2O1 (centres undefined)	u
CC#CC(=O)N1CCCC(Cc2cccc(OC)c2)(C(=O)OCC)C1 (centres undefined)	-10%
COc1ccc(Cc2nnc(NC(=O)c3ccccc3F)s2)cc1	13%
CN1CCN(C(=O)c2ccccc2NC(=O)COc2ccccc2Cl)CC1	-7%
Cc1c(C(=O)O)cccc1-n1c(C)cc(/C=N/NC(=O)c2cc3ccccc3o2)c1C	6%
Cn1cnnc1Sc1cc(N2CCN(S(=O)(=O)c3ccccc3)CC2)ccc1[N+](=O)[O-]	-3%
CNc1nc(-c2ccccc2)nc(-c2ccc(OC)cc2)c1C#N	-1%

From PubChem BioAssay
